Screening results deposited in PubChem by National Center for Advancing Translational Sciences (NCATS).
D2 agonist = Beta-Arrestin HTS for Positive Allosteric Modulators of the Human D2 Dopamine Receptor: Agonists | D(2) dopamine receptor (Homo sapiens), P14416 | DiscoveRx PathHunter D2 beta-arrestin, luminescence, 90 min; 100% = 57 uM dopamine signal | activation, % (no concentration beside the values) | 360,000 compounds, 0.084% hits | AID 624465, 2012; in the data active = activation above about 40%; inconclusive = about 15% to 40%; inactive = below about 15%; also: compound concentration not given in the record; the text of the record calls up to 30% inactive
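DiscoveRx PathHunter D2 beta-arrestin cells (2,100/well) attached overnight, then compound-stimulated 90 min at 37 C in HBSS/10 mM HEPES/0.1% Tween-20 buffer; beta-galactosidase complementation read by luminescence after 1 h at ambient temperature. Dopamine 57 uM final (EC100) as control.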
PINK1 expr mod = A Quantitative High throughput Screen to Identify Chemical Modulators of PINK1 Expression; Potency, µM (top dose mostly 76.6 µM), inactives show at the highest dose activation (PINK1 increase), usual class: activators; AID 624263, 2012; 410,000 compounds, 0.2% hits; PINK1 immunofluorescence, high-content cytometry, 24 h; active = well fitted activation curve with a large enough effect; inconclusive = small, poorly fitted or top-dose-only effect; inactive = flat fitted curve, though single readings scatter; cell line not stated here;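 also: potency is read from the fitted curve at half-maximal effect; % of control where 0% means no effect; nearly all actives have a fitted effect of over 65% in size; a mitochondrial uncoupler was the plate control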
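PINK1 protein level read as immunofluorescence by microplate cytometer in a fixed, stained stable cell line after 24 h exposure to five compound concentrations, with CCCP as control.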
D2 potentiator = Beta-Arrestin HTS for Positive Allosteric Modulators of the Human D2 Dopamine Receptor: Potentiators; DiscoveRx D2 beta-arrestin cells, luminescence, 90 min; 100% = 57 uM dopamine signal; potentiation, % (test concentration not listed); 360,000 compounds, 0.23% hits; D(2) dopamine receptor (Homo sapiens), P14416; active = potentiation of 50% or more; inconclusive = 30% to 50%; inactive = 30% or less;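 also: compound concentration not given in the record; tested on top of an EC20 dose of dopamine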
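D2 cells co-treated with compound plus 50 nM dopamine (EC20) for 90 min at 37 deg C to detect potentiation. Beta-arrestin recruitment was read as enzyme-fragment luminescence after 1 h at ambient temperature. Full response was set by 57 uM dopamine.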
TRPML1 blocker = qHTS for Inhibitors of the Human Mucolipin Transient Receptor Potential 1 (TRPML1); Mucolipin-1 (Homo sapiens), Q9GZU1; TRPML1-inducible cells, Ca2+ dye fluorescence, FDSS; hits give low values; inhibition of EC80 agonist-evoked calcium signal; activity change, negative = inhibition, % (concentration not given with the values); 390,000 compounds, 0.02% hits; AID 624415, 2012; in the data active means activity change below about -50%; inconclusive means about -30% to -50%; inactive means above about -30%;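 also: stimulus is agonist 54-4 at its EC80 concentration; % is scaled to controls: 0 for no effect and ±100 for the full control effect; the text of the record puts the active cut at -80%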
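Tet-induced TRPML1-DL cells loaded with Ca8 no-wash calcium dye were read kinetically on FDSS. Compound addition was followed by EC80 agonist 54-4 (4 uM final); inhibition was read over 110 s.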
Six1-Eya2 inh = qHTS Assay for Inhibitors of the Six1/Eya2 Interaction | Homeobox protein SIX1 (Homo sapiens) + Protein phosphatase EYA2 (Homo sapiens), … | AlphaScreen GST-Six1/His-Eya2 binding, biochemical; hits give low values; control for the full effect not named in the record | activity change, % (test concentration not listed) | 360,000 compounds, 0.56% hits; in the data active = activity change below about -65%; inconclusive = about -30% to -65%; inactive = above about -30%; also: % is scaled to controls: 0 for no effect and ±100 for the full control effect
Target sequence (O00167 whole entry, looked up): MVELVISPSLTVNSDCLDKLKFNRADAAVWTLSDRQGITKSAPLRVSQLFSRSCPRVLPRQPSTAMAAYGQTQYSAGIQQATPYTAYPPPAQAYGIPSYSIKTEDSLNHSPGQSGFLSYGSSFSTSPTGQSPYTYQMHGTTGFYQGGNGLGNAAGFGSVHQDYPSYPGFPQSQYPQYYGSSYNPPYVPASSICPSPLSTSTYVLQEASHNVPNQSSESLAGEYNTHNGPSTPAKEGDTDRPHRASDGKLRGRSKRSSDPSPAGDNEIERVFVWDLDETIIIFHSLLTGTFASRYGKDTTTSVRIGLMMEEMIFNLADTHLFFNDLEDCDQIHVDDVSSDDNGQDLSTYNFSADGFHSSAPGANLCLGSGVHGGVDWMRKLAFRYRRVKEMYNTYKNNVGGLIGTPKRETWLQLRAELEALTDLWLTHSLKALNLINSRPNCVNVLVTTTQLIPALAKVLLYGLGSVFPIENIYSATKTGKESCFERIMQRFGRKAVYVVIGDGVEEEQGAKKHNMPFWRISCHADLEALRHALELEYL
Target sequence (Q15475 whole entry, looked up): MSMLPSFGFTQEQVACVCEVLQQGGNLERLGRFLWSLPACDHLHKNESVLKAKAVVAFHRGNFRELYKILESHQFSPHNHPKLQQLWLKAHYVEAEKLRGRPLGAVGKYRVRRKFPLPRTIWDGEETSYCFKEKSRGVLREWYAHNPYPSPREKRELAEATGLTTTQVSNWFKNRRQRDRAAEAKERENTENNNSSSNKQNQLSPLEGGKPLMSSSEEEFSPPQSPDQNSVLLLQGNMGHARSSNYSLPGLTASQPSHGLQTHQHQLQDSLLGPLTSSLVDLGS
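AlphaScreen with GST-Six1 and His-Eya2 (5X mix: 250 nM and 500 nM), glutathione donor and nickel acceptor beads; buffer 50 mM Tris pH 8.0, 300 mM NaCl, 1 mM TCEP; 1 h at 37 C in the dark.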
TRPML1 ag = qHTS for Agonists of the Human Mucolipin Transient Receptor Potential 1 (TRPML1) | Mucolipin-1 (Homo sapiens), Q9GZU1 | TRPML1-expressing cells, Ca2+ dye fluorescence, FDSS; host cell line not named in the record; reference of the full effect not given here | 410,000 compounds, 0.12% hits | activation, % (no concentration beside the values) | AID 624414, 2012; in the data active = activation above about 50%; inconclusive = about 30% to 50%; inactive = below about 30%; also: 0% is about no effect; the text of the record puts the active cut at 80%
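Tetracycline-induced TRPML1-DL cells are seeded and incubated overnight before loading with a no-wash Ca2+ dye and quencher. Agonist activity is taken from the 110 s fluorescence read following compound pin-transfer on an FDSS, before EC80 54-4 challenge.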
An asterisk follows results filed as active; ? = inconclusive; . = no result given; & = joins results of further samples; [ ] = another dose, or the depositor's remark.

smiles	Six1-Eya2 inh	TRPML1 blocker	PINK1 expr mod	TRPML1 ag	D2 potentiator	D2 agonist
COc1cccc(/C=N/NC(=O)c2ccoc2C)c1O	-74*	.	-0.4%	.	-6	-0.9
CCN(CC)c1cc(C)c2cc(NC(=O)c3cccc(OC)c3)ccc2n1	.	-1	2.5%	-0.7	.	.
O=C(O)c1cccc(NC2=C(N3CCOCC3)C(=O)c3ccccc3C2=O)c1	1	-3	-1.0%	0.3	-6	0.2
CCCc1c(C(=O)NNc2ccccc2OC)cnn1-c1ccccc1	0	5	-1.1%	1.0	-13	-7.1
CCOc1ccc(CO[C@@H]2O[C@H](CO)[C@@H](O)[C@H](O)[C@H]2NC(C)=O)cc1OC	2	22	1.1%	-1.0	-5	-3.1
COc1ccc(-n2cnc3cc(N)ccc32)cc1	0	-1	.	0.2	2	-1.9
COc1cccc(NC(=O)CSc2nnc(CNC(=O)c3ccccc3F)o2)c1	-2	26	0.9%	-1.0	-10	-0.5
COc1ccc(OC)c(S(=O)(=O)Nc2ccc(-c3ccc4nnc(C)n4n3)cc2)c1	-10	-17	1.7%	-0.1	8	-0.4
O=C(N/N=C/c1ccc[nH]1)c1sc2ccccc2c1Cl	-19	9	-1.3%[38.3 µM]	0.7	-23	-0.2
Cc1cc(=O)[nH]c2c(C)c(N)ccc12	-2	9	-3.0%	-1.2	3	-0.4
COc1cc(OC)c(C(=O)NNC(=O)c2ccccc2-n2cccc2)cc1OC	-4	-4	-1.5%	0.3	-3	-2.2
Nc1ccccc1-c1nc2ccncc2[nH]1	-9	27	1.0%	0.7	-12	4.7
Cc1ccc(S(=O)(=O)N(C)c2ccccc2C(=O)N2CCCC2)cc1	1	5	-0.6%	-0.2	-23	0.4
Cc1ccc(C)c(NC(=O)c2ccc(S(=O)(=O)C(F)F)cc2)c1	3	10	-0.5%	-0.4	-2	-2.4
Cc1ccccc1NC(=O)Cn1cnc2c(oc3ccccc32)c1=O	-2	7	1.4%	-0.5	-12	0.2
COc1ccc([C@@H](C)NC(=O)c2ccc3oc(C(C)C)nc3c2)cc1	-1	0	-1.2%	-1.7	-16	-4.2
COCCN1C(=O)C(C(=O)OC)CC2=C1CC(C)(C)CC2=O (configuration not stated)	2	-2	1.6%	-0.7	-4	-3.0
O=C(COC(=O)CC1CC2CCC1C2)NC(=O)NC1CCCC1 (configuration not stated)	4	-5	-0.2%	0.0	-6	-2.7
O=C(CN1C(=O)/C(=C/c2ccc(F)cc2)SC1=S)N1CCN(CCc2ccccn2)CC1	-8	49	3.3%	0.6	-16	-0.1
C[C@@H]1C=C(C(=O)NCc2nc3ccccc3[nH]2)O[C@H](OCc2ccc(CO)cc2)C1	-5	5	-0.8%	-0.1	-14	-3.7
O=C(OCc1ccc(F)cc1Cl)c1ccccn1	0	4	?	0.3	-10	1.2
CCOc1ccc(C(=O)CCC(=O)N(CC)CC(=O)NCc2cccs2)cc1	5	-7	-2.3%	-0.2	-15	-2.3
O=C(CCNC(=O)c1ccccc1Cl)NCC(c1ccco1)N1CCCC1 (configuration not stated)	-1	-9	-0.6%	-0.7	-7	0.5
O=C(NCC1CCCO1)c1cccc(S(=O)(=O)N(Cc2ccccc2)c2ccccc2)c1 (configuration not stated)	-5	9	-1.4%	-0.1	-11	-0.7
COc1ccc(NC(=O)c2c(C(F)(F)F)nn(C)c2SCc2ccccc2Cl)cc1	3	18	.	0.2	-7	-4.5
COc1ccc(C(CNC(=O)C2COc3ccccc3O2)N2CCCC2)cc1 (configuration not stated)	3	1	-0.2%	-0.4	-36	-2.8
COc1cc(CN2C[C@@H](CO)O[C@@H](n3cnc4c(NC5CC5)ncnc43)C2)cc(OC)c1OC	-3	2	1.6%	-0.5	-8	-3.8
COC(=O)CC1Nc2ccccc2SC1=O (configuration not stated)	1	-21	-3.3%	4.6	-6	-1.7
CCOC(=O)Cn1nc(C)c(NC(=O)c2ccc(Cl)c([N+](=O)[O-])c2)c1C	-4	?	2.5%	-0.2	-7	4.9
COc1ccc2c(=O)c3c(=O)n(Cc4ccco4)c(-c4ccco4)nc3oc2c1	?	-10	12%[38.3 µM]	1.3	15	1.0
CN1CCN(CCNC(=O)c2cnn(-c3cccc(Cl)c3)c2C2CCN(C(=O)OC(C)(C)C)CC2)CC1	.	-14	-2.1%	1.0	.	.
O=C(CN(C(=O)CNC(=O)c1ccco1)c1ccc(F)c(Cl)c1)NC1CCCCC1	3	-2	-1.5%	0.1	-9	-1.2
Cc1ccc(CN/C=C/C(=O)c2ccc(Br)cc2)cc1	0	19	25%	8.1	-9	-3.4
C=CCNC(=O)c1ccccc1NC(=O)C1CC(=O)N(C(C)C)C1 (configuration not stated)	-15	-3	0.0%	0.7	-7	-1.2
COc1ccc(C(=O)Nc2ccc(N3CCN(c4ccc(OC)cc4)CC3)c(C#N)c2)cc1	0	3	-0.9%	-0.4	-4	-1.1
COc1cccc(C=NNc2ccc([N+](=O)[O-])cn2)c1OC	-6	0	4.9%	0.2	-2	-3.6
CCc1cc[n+](-c2nc3ccccc3nc2[N-]S(=O)(=O)c2ccc(Br)s2)cc1	16	2	1.2%	7.7	10	2.0
CCOc1cc(C2C(C#N)=C(N)OC(C)=C2C(C)=O)c(Br)c(Br)c1OC(C)C (configuration not stated)	-7	6	-1.1%	9.9	-26	-4.6
COc1cccc(-n2c(C)nn(CCOc3ccccc3)c2=O)c1	2	17	0.6%	-1.4	1	-0.6
COc1ccc(C(=O)C2CCCN(C(=O)c3ccccc3C(C)=O)C2)cc1F (configuration not stated)	15	-4	-1.1%	0.1	0	-3.0
CC(C)Oc1ccc(CNC(=O)c2ccc3nc(Cc4ccccc4)oc3c2)cc1	.	-12	4.4%	2.9	.	.
CCCCCCCCCCCCCCCC[N+](C)(C)Cc1ccc(F)cc1	14	4	-2.0%	0.8	-36	-3.2
Cc1ccc(N/C(N)=N/c2nc(CSc3nnc(N)s3)cc(=O)[nH]2)cc1	-11	21	-0.7%	2.1	-10	-2.4
Cc1cccc(NC(=O)CSc2nc(-c3ccccc3Cl)nc3c2Cc2c(CO)cnc(C)c2O3)c1C	.	19	1.6%	0.4	.	.
Cc1cc(NC(=O)Nc2ccccc2[N+](=O)[O-])no1	3	23	1.9%	0.3	-1	-3.2
CCN(CC)c1ccc(NC(=O)/C=C\c2ccccc2Cl)cc1	?	6	.	-0.3	-15	-3.1
CCN(CC)c1nc2ccccc2[nH]c1=O	3	?	4.8%	0.0	3	-2.2
CCCCNCCOCCSc1ccc(Cl)cc1	1	-6	-0.1%	-1.2	-19	-1.9
Nc1nn(-c2ccccc2)nc1C(=O)OCc1ccccc1	11	-17&16	-1.0%&4.3%	1.4&2.4	0	0.9
COc1cc(-c2ccc(Nc3ccccc3C(=O)O)c(OC)c2)ccc1Nc1ccccc1C(=O)O	-27	9	-1.2%	-0.8	-12	1.3

Carrying on:
smiles	Six1-Eya2 inh	TRPML1 blocker	PINK1 expr mod	TRPML1 ag	D2 potentiator	D2 agonist
CC1CCN(S(=O)(=O)c2ccc3c(c2)oc(=O)n3CC(=O)N2c3ccccc3CC2C)CC1 (configuration not stated)	6	21	-0.4%	1.1	-4	-3.0
Cc1cccc(C)c1OCCNC(=O)CCC(=O)c1ccccc1	-12	-8	-1.1%	-0.5	-2	-1.5
C#CCOCCOCCOCCNc1nc(N2CCN(C(=O)[C@H](Cc3cc4ccccc4[nH]3)n3cc(C(N)CC(C)C)nn3)CC2)nc(N2CCN(C(=O)[C@H](CCC(=O)O)n3cc(C(N)[C@H](C)CC)nn3)CC2)n1 (some centres not stated)	-15	-5	2.0%	0.5	-5	-4.4
Cc1ccc(S(=O)(=O)N2CCC(=O)N(CCOCc3ccc(F)cc3)CC2)cc1	8	0	-1.1%	-1.0	-2	-1.1
CCOC(=O)CN1C(=O)S/C(=C\c2ccc3c(c2)OCO3)C1=O	5	-9	2.1%	-0.8	28	3.2
C/C(=C\c1ccccc1)C(=O)NCc1ccco1	4	9	3.1%	0.0	-5	1.0
CCn1cc(C2=NC(C(C)C)CO2)c2ccccc21 (configuration not stated)	7	-7	10%	0.2	-12	-5.4
CCCSc1nc2c(cnn2-c2ccccc2)c(=O)[nH]1	-13	-5	2.4%	-0.6	-5	-4.1
CCCCCc1nc2c(=O)n(C)c3ccccc3c2o1	-8	7	-1.2%	-0.8	-1	-4.1
Cc1nnc(SCC(=O)NC(C)(C)C)n1NCc1cccc(Br)c1	-3	39	0.7%	-0.1	-3	0.5
CC(C)Oc1ccc(CNC(=O)Cn2ccc3cc(S(=O)(=O)N4CCCC4)ccc32)cc1	-2	-13	3.8%	1.5	-18	5.7
Cc1ccc(C)c(OCc2cc(C(=O)N3CCN(c4ccccc4C)CC3C)no2)c1 (configuration not stated)	11	14	2.4%	0.8	-9	-10
Cc1cccc(OC(=O)c2cc(-c3ccc(Cl)cc3)on2)c1C	.	-9	-1.5%	-0.1	.	.
CCOc1ccccc1OCCCC(=O)NNC(=O)c1cc(C)oc1C	-28	6	0.4%	0.3	-2	3.4
Cc1sc2ncn(CC(=O)OCC(=O)NC(C)(C)C)c(=O)c2c1C	1	-6	-2.4%	3.4	0	-1.2
CCNC(=O)N(CC)C[C@H]1N[C@@](CC)(C(=O)OC)[C@H]2C(=O)N(Cc3ccccc3)C(=O)[C@@H]12	7	41	-0.1%	3.5	-5	-0.1
N#C/C(=C\c1c(Oc2ccc(Cl)cc2)nc2ccccn2c1=O)C(=O)NC1CCS(=O)(=O)C1 (configuration not stated)	-3	29	3.9%	0.5	0	-12
O=C(c1ccc(F)cc1)N1CCCC(N2CCN(Cc3ccc4c(c3)OCO4)CC2)C1 (configuration not stated)	-1	1	-0.4%	2.3	-24	-4.1
C=C1c2ccc(C)cc2NC(=O)N1c1ccccc1	0	-6	4.6%	-0.3	-23	-6.1
COc1cccc(/C=N/n2nnnc2N)c1OCC#N	5	49	-0.1%	-0.5	-9	-7.7

Part of the list above in a different format:
Sequence of screens – Six1-Eya2 inh, TRPML1 blocker, PINK1 expr mod, TRPML1 ag, D2 potentiator, D2 agonist
> CCOc1ccccc1OCCCC(=O)NNC(=O)c1cc(C)oc1C
    -28, 6, 0.4%, 0.3, -2, 3.4
> Cc1ccc(C)c(OCc2cc(C(=O)N3CCN(c4ccccc4C)CC3C)no2)c1 (configuration not stated)
    11, 14, 2.4%, 0.8, -9, -10
